Assay outcomes: PubChem BioAssay, several laboratories
Mtb betalactam = beta-lactam sensitization of Mtb H37Rv. M. tuberculosis H37Rv growth with meropenem, percent inhibition; hits of this screen are not shown here. 330,000 tested, 0.27% active. inhibition, % at 25 µM;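 active = about 74% or more and at least 40 points above the plate without the antibiotic, then above 30% in a dose series; inconclusive = first-round hits that could not be retested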;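 also: growth measured after seven days incubation then overnight dye step; 0% = bacteria only wells and 100% = bacteria with antibiotic; twin plates without the antibiotic show which effects depend on it; some results filed as inactive read as strong as hits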
YopH inh = blocks Yersinia enterocolitica YopH tyrosine phosphatase; 140,000 tested, 0.16% active; fluorescence Ex485/Em525; inhibition, %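 (about 10 µM by stock and volumes)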;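 active = inhibition of 50% or more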;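 also: controls were vehicle for no effect and minimum signal wells for full effect; inactives centre near -20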
Mtb growth = M. tuberculosis H37Rv growth inhibitors, H37Rv strain (AID 1626); 220,000 tested, 0.95% active; M. tuberculosis H37Rv growth inhibition; higher % means a stronger effect; inhibition, % at 10 µM, or IC50 in µM where a hit was titrated;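 active = confirmed in a dose series; inconclusive = inhibition above 80% but not taken into the dose series; inactive = below 80% or under 30% at every dose of the series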;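 also: bacteria incubated seven days before Alamar blue readout; 0% = bacteria only wells and 100% = bacteria with antibiotic wells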
RecA intein inh = blocks M. tuberculosis RecA intein splicing; cell-free RecA intein splicing, fluorescence; inhibition, %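 (about 9 µM by stock and volumes)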; 290,000 tested, 0.75% active; AID 2221; in the data active = inhibition above about 30%; inconclusive = no clear call, values can overlap the other calls;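 also: 0% = vehicle wells and 100% = reference inhibitor control wells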
Target sequence (P9WHJ3 whole entry, looked up): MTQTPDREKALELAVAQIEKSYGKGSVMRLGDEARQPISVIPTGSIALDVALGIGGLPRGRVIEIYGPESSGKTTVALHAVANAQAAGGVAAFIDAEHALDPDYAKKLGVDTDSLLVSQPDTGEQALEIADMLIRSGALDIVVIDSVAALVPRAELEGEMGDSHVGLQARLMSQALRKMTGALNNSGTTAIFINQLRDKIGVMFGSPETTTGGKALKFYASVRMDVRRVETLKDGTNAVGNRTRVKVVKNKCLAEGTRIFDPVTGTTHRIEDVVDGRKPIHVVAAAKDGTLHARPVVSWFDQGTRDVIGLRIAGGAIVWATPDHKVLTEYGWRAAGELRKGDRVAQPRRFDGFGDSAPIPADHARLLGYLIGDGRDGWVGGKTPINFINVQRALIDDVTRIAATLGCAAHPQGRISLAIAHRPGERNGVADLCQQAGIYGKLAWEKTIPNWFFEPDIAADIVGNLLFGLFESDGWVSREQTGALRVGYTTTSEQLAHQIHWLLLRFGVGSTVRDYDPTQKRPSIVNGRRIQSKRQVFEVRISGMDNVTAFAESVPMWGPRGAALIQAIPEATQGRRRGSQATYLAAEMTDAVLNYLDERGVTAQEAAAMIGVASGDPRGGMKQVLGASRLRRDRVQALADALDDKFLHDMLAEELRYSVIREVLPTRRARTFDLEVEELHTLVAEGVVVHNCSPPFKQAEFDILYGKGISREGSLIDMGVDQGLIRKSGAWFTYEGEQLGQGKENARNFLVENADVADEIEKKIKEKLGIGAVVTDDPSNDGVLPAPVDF
Arbovirus anti = blocks arbovirus infection; 200,000 tested, 0.37% active; arbovirus infection cell-based antiviral screen; inhibition, % at 10 µM;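 active = inhibition from about 30%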;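 also: bluetongue infection of BSR cells; cell survival read as ATP light after 72 h; 0% = infected wells without compound and 100% = uninfected wells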
Arbovirus anti repeat = second read-out of Arbovirus anti, no call of its own (marks repeat the call); inhibition, %; measured here: 10K subset replicate screen; many hits read low in the repeat;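 first of two repeat runs on a subset; 0% = infected and 100% = uninfected wells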
Active calls of the source: *; ? = inconclusive; . = not tested or not shown; & = joins results of further samples. A portion of the library (hit frequency here may not be typical).

SMILES	Mtb betalactam	YopH inh	Mtb growth	RecA intein inh	Arbovirus anti	others
COC(=O)c1cc(Br)c(=O)n(CC(C)C)c1	-9	-23	-9%	-5.3	5
COC(=O)c1[nH]c2ccccc2c1NC(=O)c1c(F)cccc1F	-1	.	-6%	-2.0	.
Cc1cccc(NC(=O)c2ccc(Cl)c(S(=O)(=O)N3CCCCC3)c2)n1	3	.	.	1.8	.
CCCNS(=O)(=O)c1ccc(OCC(=O)NCC2CCCO2)cc1 (stereo unspecified)	6	.	.	-2.5	.
Cc1noc(C)c1COC(=O)COc1ccc(-c2ccccc2)cc1	91	.	40%	14	.
CCOC(=O)C1CCN(C(=O)C2CCN(c3ncnc4c3nc3n4CCCCC3)CC2)CC1	50	.	.	-6.0	.
CC(c1ccccc1F)n1cc(C(=O)NCCCn2ccnc2)nn1 (stereo unspecified)	-16	-32	-5%	0.3	-11
Cc1cc(C)cc(N(CCC#N)C(=O)COC(=O)c2ccc(OCc3c(C)noc3C)cc2)c1	55	.	.	0.3	.
COC(=O)c1ccc(NC(=O)CCN2C(=O)CSC2=O)cc1	-1	.	2%	-8.8	-2
O=P(NC(c1ccccc1)c1ccccc1)(Oc1ccccc1)Oc1ccccc1	0	-16	7%	0.3	-12
NC(=O)CCN1CCN(S(=O)(=O)/C=C/c2ccccc2)CC1	-5	.	.	0.0	.
COCCNC(=S)N/N=C(\C)CCc1ccc2c(c1)OCO2	3	.	-5%	-3.1	-8
COCCNC(=O)C(c1ccc(C)o1)N(Cc1ccco1)C(=O)c1snc(C(N)=O)c1N (stereo unspecified)	-4	-30	-5%	.	6
O=C(CN1C(=O)c2ccccc2C1=O)NCC1COc2ccccc2O1 (stereo unspecified)	-19	-6	-3%	2.5	11
CCNc1nc(N)c(C(=O)C23CC4CC(CC(C4)C2)C3)s1	0	.	-6%	-1.7	.
CC(C)Cn1nnc2c(=O)oc3ccccc3c21	95	-55	.	1.9	8
Cc1ccc(S(=O)(=O)N2CCC(C(=O)N[C@H](C(=O)NCc3ccco3)C(C)C)CC2)cc1	-3	-2	0%	.	-2
CCOC(=O)Cc1csc(NS(=O)(=O)c2ccc3ccccc3c2)n1	4	-28	3%	9.8	15
CCn1nnnc1SCC(=O)c1cc(Cl)ccc1OC	-4	.	-2%	-0.4	5
CCc1cc(=O)oc2cc(OCC(=O)NCCCN3CCCC3=O)c(Cl)cc12	11	.	.	0.3	.
COc1ccc(NS(=O)(=O)c2ccc(OCC(=O)N3CCCC3)cc2)cc1	7	0	2%	-2.7	0
Cc1ccccc1NC1C=CS(=O)(=O)C1 (stereo unspecified)	1	-8	2%	0.1	8
CC(NC(=O)NCc1cccnc1)(C(F)(F)F)C(F)(F)F	-14	-28	-12%	0.0	-2
COc1ccc(OC)c(/C=C/C(=O)Nc2cccc(S(=O)(=O)N3CCCC3)c2)c1	-8	.	0%	-21	-6
OCC1(Cc2cccc(Cl)c2)CCCN(Cc2cn[nH]c2C2CCCCC2)C1 (stereo unspecified)	-5	.	-7%	0.5	-20
CC(=O)NC12CC3CC(C1)CC(C(=O)N1CCN(S(=O)(=O)c4cccc(C(F)(F)F)c4)CC1)(C3)C2	0	.	.	-2.8	.
Fc1ccc(-c2nnc3ccccn23)cc1	.	.	0%	0.9	4
N/C(=N/S(=O)(=O)c1ccccc1)c1cccc([N+](=O)[O-])c1	6	.	-19%	-0.3	1
CSc1nnc(Cn2c(=O)sc3ccccc32)n1C	-1	-35	0%	0.0	-1	Arbovirus anti repeat=-1
COCCSc1nnc(NC(=O)c2ccc3c(c2)OCO3)s1	4	.	0%	-1.4	-3
Cc1onc(-c2ccccc2Cl)c1-c1nc(-c2ccccn2)no1	0	-44	.	8.7	0
CC(C)(C)OC(=O)N[C@@H](Cc1ccccc1)C(=O)N1CCC(C(=O)NCC(=O)O)CC1	?	.	.	-1.3	.
COc1ccc(C(=O)Nc2ccc(C(=O)Nc3cccc(C)c3)cc2)cc1	-9	.	.	-1.4	.
O=C(COc1ccccc1)N=C1SC2CS(=O)(=O)CC2N1Cc1ccccc1 (stereo unspecified)	-4	.	.	2.6	.
S=C(NCC1CCCO1)NC1CCCCC1 (stereo unspecified)	2	.	0%	5.1	13
COc1ccc(C=O)cc1COc1ccc([N+](=O)[O-])c(C)c1	6	.	11%	3.0	-1
CCCCC(=O)Nc1cccc(NC(=S)NC(=O)COc2ccccc2Cl)c1	-5	-19	10%	3.3	4
C/C(N)=C(/C#N)C(=O)CSc1nnnn1-c1ccccc1	-5	-10	-10%	2.9	-3
CCCc1[nH]nc2c1C(C1CC=CCC1)C(C#N)=C(N)O2 (stereo unspecified)	-1	-30	-7%	5.0	6&-7	Arbovirus anti repeat=-1
COC(=O)CSc1nnc(CNS(=O)(=O)c2ccc(Cl)cc2)n1C	-6	9	-2%	-1.3	7
COC(=O)C1=CN(c2ccc(OC)cc2)C=C(C(=O)OC)C1c1ccc([N+](=O)[O-])cc1	0	.	.	-4.9	.
CCOc1ccc(NC(=O)CSc2nc(C)cc(C)n2)cc1	12	-4	-2%	-3.0	-5
O=C(NCC1CCCO1)c1ccc2c(=O)n(Cc3cccc(Br)c3)c(=S)[nH]c2c1 (stereo unspecified)	-7	.	3%	1.9	-14
Cc1ccc(NC(=O)CCNS(=O)(=O)c2ccc3c(c2)oc(=O)n3C)c(C)c1	-14	-27	1%	-2.0	-6
CCC(CC)C(=O)NCCc1ccc(OC)c(OC)c1	3	-25	-7%	.	-2
CCc1ccc(C(=O)NNC(=S)Nc2ccc(S(N)(=O)=O)cc2)s1	-3	.	5%	63*	-1
CCOC(=O)C1(CCOc2ccccc2)CCN(Cc2ccc(C#CCCO)cc2)CC1	76	.	.	3.9	.
O=c1[nH]c(=S)[nH]c(O)c1C(c1ccccn1)c1c(O)[nH]c(=S)[nH]c1=O	-4	.	-8%	-4.7	13
Cc1nc(NCCCN2CCOCC2)c2oc3ccccc3c2n1	-5	-38	4%	-2.3	0
Cc1nc2cc(C(=O)N3c4ccccc4CC3C)ccc2s1 (stereo unspecified)	4	.	2%	3.5	-25
Cc1nc2ccccc2c2c1C(=O)N(c1ccc(C(=O)O)cc1)C2=O	-2	.	-7%	.	5
C/C=C/CSc1nc2c(c(=O)[nH]c(=O)n2C)n1Cc1ccc(C)cc1	-2	-28	8%	2.0	8	Arbovirus anti repeat=2
Nc1c(-c2ccccc2)cnn1-c1cccc(C(F)(F)F)c1	3	15	-5%	1.1	-2
O=C(Cc1c(F)cccc1Cl)Nc1ncc([N+](=O)[O-])s1	8	.	0%	25	25
O=[N+]([O-])c1cccc(S(=O)(=O)Nc2ccc(S(=O)(=O)N3CCCC3)cc2)c1	-20	.	.	-1.1	.
COCCn1c(C(C)C)nc2ccccc21	-13	.	1%	1.5	.
COc1ccc(N2CSC3=C(C#N)C(c4cc(OC)ccc4OC)CC(=O)N3C2)c(OC)c1 (stereo unspecified)	-4	69*	0%	8.3	-3	Arbovirus anti repeat=-10
COc1cc(NC(=O)CN(C)C2CCCCC2)c(C)cc1[N+](=O)[O-]	6	6	6%	4.2	-7
Cc1ccc(-c2csc3nc4cc(C(N)=O)ccc4c(=O)n23)cc1	-8	.	-5%	-15	.
CCCNC(=O)c1ccccc1SCc1c(C)noc1C	6	.	.	-0.8	.
Next part:
SMILES	Mtb betalactam	YopH inh	Mtb growth	RecA intein inh	Arbovirus anti	others
CCOCCCNC(=O)c1c[nH]c2ccc(S(=O)(=O)Nc3cccc(OC)c3)cc2c1=O	38	-17	6%	0.3	3
O=S(=O)(NC(=NC1CCCCC1)c1ccccc1)c1ccc(F)cc1	?	.	.	0.6	.
CCOC(=O)c1cccc(NC(=O)c2ccc3c(c2)OCO3)c1	7	.	.	0.9	.
CC(=O)NS(=O)(=O)c1ccc(Nc2ccc([N+](=O)[O-])c3nonc23)cc1	3	.	3%	8.7	.
CCCCn1c(SCC(=O)N2CCOCC2)nnc1-c1ccoc1C	-4	-36	-3%	-0.5	-4
Cc1ccc(OCC(=O)N(Cc2cccs2)C2CCS(=O)(=O)C2)cc1C (stereo unspecified)	7	.	2%	-1.0	.
O=C(Nc1ccc(Br)cc1)Nn1cnnc1	-1	.	.	0.2	.
O=C(NCc1ccccc1)c1ccc2c(=O)n(CCCN3CCCC3=O)c(=S)[nH]c2c1	-2	-8	-3%	1.0	-7
Cc1ccc(S(=O)(=O)Nc2nc3ccc(S(C)(=O)=O)cc3s2)cc1	2	-5	-12%	-3.2	-3
Cc1cc(C)n(CCC(=O)N/N=C/c2ccc(O)cc2O)n1	37	-6	-10%	-3.8	-13
COc1cc(/C=C/C(=O)O)cc(S(=O)(=O)N2CCc3ccccc32)c1OC	-3	.	-2%	-1.2	1
CCOC(=O)c1c(NC(=O)CSc2nnnn2-c2ccc3c(c2)OCO3)sc(C)c1C	4	5	-1%	-0.8	-1
COc1ccc(N2CCN(Cc3nc4c(c(=O)n(C)c(=O)n4C)n3C(C)C(C)=O)CC2)cc1 (stereo unspecified)	-4	-27	1%	-4.0	0
O=C(CSc1ccccc1)Nc1ccc2sccc2c1	95	.	.	3.3	.
CC(C)(C)c1ccc(S(=O)(=O)N2CC3CC(C2)c2cccc(=O)n2C3)cc1 (stereo unspecified)	-1	-16	-15%	-2.6	-2
C=CCn1c(SCC(=O)Nc2ccccc2-c2ccccc2)nc2cc(C(=O)O)ccc2c1=O	-3	.	4%	1.4	2
O=c1c(-c2ccccc2Cl)coc2c(CN3CCCCC3)c(O)ccc12	-6	.	.	-1.3	.
Fc1ccc(N2CCN(Cc3ccc4c(c3)OCO4)CC2)cc1	0	-20	0%	-0.4	-17
COc1ccccc1C(=O)Nc1ccc(Nc2ccccc2)cc1	-7	.	.	-0.6	.
Cc1ccc(C(=O)NCCCn2ccnc2)cc1C	-15	.	.	-0.7	.
COc1ccc(-c2nnc(SCC(=O)NC3CCCC3)n2C)cc1	-5	.	.	-1.5	.
COc1ccc(CCNC(=O)c2ccc(CS(=O)Cc3ccc(C)cc3)o2)cc1OC (stereo unspecified)	3	.	.	0.7	.
Cc1ccccc1NC(=O)CSc1nnc(Cc2cccn2C)n1-c1ccc(F)cc1	-2	-16	1%	1.4	4
COc1ccc(/C=N/Nc2nc(-c3ccc(Cl)cc3)cc(C(F)(F)F)n2)cc1OC	98	-3	?	4.0	5
Cc1ccc(NC(=O)Nn2cnnc2)cc1Cl	3	.	.	2.3	.
COc1cc(NC(=O)C2CC2)c(OC)cc1NC(=O)c1ccco1	49	.	.	-0.4	.
COc1ccccc1NCC(=O)N/N=C/C=C/c1ccccc1	83	-21	?	-1.2	-26
COc1cc(/C=N/Nc2nc(C)cc(=O)[nH]2)cc(OC)c1O	-1	.	.	-5.7	.
